Screening data: PubChem BioAssay, several laboratories
INS promoter inh – TRM-6 insulin promoter activity inhibition; inhibition, % at 2 µM; 130,000 tested, 0.9% active; TRM-6 cells (human fetal islet line), insulin promoter-eGFP reporter, imaging; reporter expression induced with tamoxifen;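 active = inhibition above the mean plus 3 SD, with well images judged a real hit on visual review, cut at about 60% in these data, passing the limit was not always enough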
GALR2 agonist – GALR2 (human) receptor agonism | O43603 | activation, %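 (tested at 5 µM)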 | GALR2-expressing cells, agonist activation read-out | 140,000 tested, 0.48% active;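 active = above mean plus 3 SD of all compounds, about 5% in these data, not always enough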;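 note: 0% = vehicle buffer wells and 100% = reference agonist at full effect; tested in CHO reporter cells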
Target sequence (O43603 whole entry, looked up): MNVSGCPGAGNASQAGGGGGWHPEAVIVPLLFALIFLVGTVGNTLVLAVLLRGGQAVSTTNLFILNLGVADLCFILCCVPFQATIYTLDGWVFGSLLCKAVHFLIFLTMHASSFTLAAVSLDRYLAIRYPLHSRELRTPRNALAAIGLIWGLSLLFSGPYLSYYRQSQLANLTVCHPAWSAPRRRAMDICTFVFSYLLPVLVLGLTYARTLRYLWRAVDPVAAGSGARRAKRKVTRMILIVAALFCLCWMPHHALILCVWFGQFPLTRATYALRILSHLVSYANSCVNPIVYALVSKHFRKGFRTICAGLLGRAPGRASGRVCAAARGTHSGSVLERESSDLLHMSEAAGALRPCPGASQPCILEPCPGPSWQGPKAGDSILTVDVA
RGS16-Gao – regulators of human RGS16-Galphao interaction; binding response (% of control), % at 10 µM; O15492+P09471; AID 1441; bead-based flow cytometry RGS16-Galphao binding, fluorescence; actives lie on both sides; 220,000 tested, 0.38% active;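 active = below 25% or above 175%, edge rows of some plates excepted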;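 note: Galphao activated by GDP with aluminum fluoride before binding; 100% = wells without compound and 0% = beads without RGS; some results beyond the cut were filed as inactive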
Target sequence (O15492 whole entry, looked up): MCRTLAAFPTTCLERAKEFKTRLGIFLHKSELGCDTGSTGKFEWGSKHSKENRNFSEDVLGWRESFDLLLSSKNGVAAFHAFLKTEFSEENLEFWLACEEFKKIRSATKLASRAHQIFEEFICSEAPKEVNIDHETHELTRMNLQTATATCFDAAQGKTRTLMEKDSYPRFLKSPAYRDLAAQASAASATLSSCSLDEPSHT
Target sequence (P09471 whole entry, looked up): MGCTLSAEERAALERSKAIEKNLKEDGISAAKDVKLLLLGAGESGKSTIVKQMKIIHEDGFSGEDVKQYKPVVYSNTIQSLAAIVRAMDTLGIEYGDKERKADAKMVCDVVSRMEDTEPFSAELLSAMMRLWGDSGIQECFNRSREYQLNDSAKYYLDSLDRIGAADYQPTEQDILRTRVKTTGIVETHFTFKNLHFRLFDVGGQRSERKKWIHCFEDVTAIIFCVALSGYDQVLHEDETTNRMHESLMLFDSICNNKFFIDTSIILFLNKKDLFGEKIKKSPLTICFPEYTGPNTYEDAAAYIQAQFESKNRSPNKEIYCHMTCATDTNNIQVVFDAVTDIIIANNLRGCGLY
HSV replic up – increases HSV replication in cells. 220,000 tested, 0.005% active. HSV replication augmentation in cells, fold increase. maximum fold increase;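 active = peak rise of 1.5-fold or more in the series; tested in PC3 cells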;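 note: first round at 10 µM; read as green reporter fluorescence; hits show the peak of a series up to 25 µM; 1 = signal of infected wells without compound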
PKD1 inh – PKD1 (human) kinase inhibition; Q15139; PKD1 kinase fluorescence polarization assay; inhibition, %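 (about 10 µM by stock and volumes)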; 200,000 tested, 0.056% active;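 active = inhibition of 50% or more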;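 note: controls were vehicle for no effect and a reference inhibitor for full effect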
INS promoter inh cell count – recorded beside INS promoter inh, whose call it bears; normalized cell count, %; measured here: cell count, toxicity; reference of the scale not given here;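 cells exposed to compound for 48 h; stained nuclei by imaging scaled within each plate; lower means fewer cells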
HSV replic up primary fold – recorded beside HSV replic up, whose call it bears; fold increase; compound at 10 µM; measured here: primary screen fold increase 10 uM; tested in PC3 cells;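 GFP signal in the first replicate; 1 = infected wells without compound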
* marks the source's active call; other numbers are inactive results; i = inactive; . = not tested or not shown.

Molecule	INS promoter inh	INS promoter inh cell count	GALR2 agonist	RGS16-Gao	HSV replic up	HSV replic up primary fold	PKD1 inh
CCOc1cc(-c2c(C#N)c(N)nc3c2CCc2ccccc2-3)ccc1O	8	132	-0.2	103	i	0.76	-14
COc1cc2c(cc1OC)C(c1cccs1)N(C(=O)C(C)C)CC2 (configuration not stated)	-26	120	-2.2	78	i	0.84	-9
Cc1cc(-n2nc(C)cc2C)n2ncc(-c3ccccc3)c2n1	.	.	-1.6	100	i	0.87	-4
Cc1cccc(CSc2nc3c(cc2C#N)CCC3)c1	-69	115	-2.4	98	i	0.99	6
COc1ccc(CCN(C)C(=O)C2CCN(Cc3cccc(OC)c3OC)CC2)cc1OC	.	.	.	102	i	0.87	4
CCOC(=O)C1CCCN(C(=O)/C=C/c2cccc([N+](=O)[O-])c2)C1 (configuration not stated)	-16	121	0.3	102	i	0.99	-9
Cc1ccc(-c2nc3ccccc3[nH]2)cc1N	-57	86	-1.5	98	i	0.95	-4
COC(CNC(=O)CNC(=S)N(Cc1ccccc1)Cc1cccs1)OC	.	.	.	107	i	0.86	-6
Cc1ccc(C)c2sc(NC(=O)c3ccc(N4C(=O)CCC4=O)cc3)nc12	25	81	4.3	97	i	0.87	0
Cc1cccnc1NC(=S)NCCc1ccccc1	.	.	.	92	i	0.91	4
COCc1cc(=O)[nH]c(Sc2c(-c3ccccc3)c3ccc(Cl)cc3[nH]c2=O)n1	15	134	-1.6	99	i	1.1	-1
COC(=O)Cc1ccc(NC(=O)c2ccccc2Cl)cc1	.	.	.	103	i	0.84	-1
CCN(CC)S(=O)(=O)c1ccc(OC)c(NC(=O)c2cn(CC)c3nc(C)ccc3c2=O)c1	.	.	.	103	i	0.82	2
N=C1S/C(=C\c2cn[nH]c2-c2ccc(F)cc2)C(=O)N1c1ccccc1F	44	126	0.0	101	i	1.1	-5
O=C(Nc1ccc2c(c1)oc1ccccc12)c1ccncc1	.	.	0.2	116	i	0.82	-4
O=C1CNC(=S)N1c1nc2ccccc2s1	.	.	.	101	i	0.98	.
O=C1CC2(CCCCC2)Oc2ccc(O)cc21	.	.	-0.6	100	i	0.91	4
Cc1ccc(OC(=O)c2ccc(C)c([N+](=O)[O-])c2)cn1	-31	109	.	96	i	0.97	-3
CC(C)Sc1nc2c(cnn2-c2ccccc2)c(=O)[nH]1	.	.	-1.8	98	i	0.81	-18
O=C(c1cccc([N+](=O)[O-])c1)c1ccc2c(c1)C(=O)NC2=O	.	.	.	100	i	0.78	-3

Next section
Molecule	INS promoter inh	INS promoter inh cell count	GALR2 agonist	RGS16-Gao	HSV replic up	HSV replic up primary fold	PKD1 inh
Cc1nn(C)cc1/C=N/NC(=O)CSc1ccccn1	.	.	.	90	i	1	.
CCCCNc1ccc(S(N)(=O)=O)cc1[N+](=O)[O-]	-38	141	-1.0	107	i	0.91	-13
COC(=O)C(C(=O)OC)C(C[N+](=O)[O-])c1ccc(OC)cc1 (configuration not stated)	13	107	-3.3	66	i	1	-6
CCOc1ccc(C(=O)C(CN2CCOCC2)c2ccccc2)cc1 (configuration not stated)	29	81	-1.9	100	i	0.57	-5
COc1cccc(CC2(CO)CCCN(Cc3ccc(-c4ccco4)cc3)C2)c1 (configuration not stated)	.	.	.	98	i	1.2	0
COc1ccc2nc(/N=C\N(C)C)sc2c1	-25	58	-4.1	102	i	1	-20
CC(=O)N1CCCc2cc(S(=O)(=O)N(C)CCC#N)ccc21	.	.	-2.3	51	i	0.85	9
CN(C)/C=C/C=C1C(=O)CCCC1=O	-58	156	1.0	229	i	1	3
CCOc1ccc(/C(O)=C2/C(=O)C(=O)N(Cc3cccnc3)C2c2ccc(N(C)C)cc2)c(C)c1 (configuration not stated)	55	78	-1.1	102	i	0.77	-5
COC(=O)c1cccc(NC(=S)NCCC2=CCCCC2)c1	-29	90	1.4	100	i	0.89	4
Cc1ccc2oc(=O)c3cnn(CC(=O)N4CCN(c5ccccn5)CC4)c3c2c1	.	.	-3.1	99	i	1	-8
COC(=O)[C@@H]1C[C@@]2(O)[C@H](O)[C@H](O)[C@H](O)C[C@H]2N1Cc1ccc(C(F)(F)F)cc1	.	.	.	99	i	1.1	.
CCOC(=O)c1sc(NC(=O)c2cc(-c3ccc(C)cc3)nc3ccccc23)c(C#N)c1C	.	.	0.2	58	i	0.7	1
CCCCCCc1cc2cc(C(=O)Nc3cccc(OC)c3)c(=O)oc2cc1O	-32	106	0.4	99	i	0.8	-6
C/C(=N\NC(=S)Nc1ccccc1C)C1Cc2ccccc2C(=O)O1 (configuration not stated)	.	.	.	96	i	0.82	.
Cn1cc(SCC(=O)Nc2nccs2)c2ccccc21	.	.	-0.5	100	i	0.94	4
CCn1c(SCC(=O)c2ccc(NS(=O)(=O)c3ccccc3)cc2)nnc1-c1cccs1	45	54	0.2	101	i	0.77	4
Cc1ccnc(SCC(=O)c2ccc(Br)s2)n1	19	88	.	85	i	1.1	-10
O=C(C1=C(O)C(=O)N(CCc2ccccc2)C1c1cccs1)c1ccco1 (configuration not stated)	14	166	.	106	i	0.96	-1
CC(C)n1nnc2c(=O)oc3ccccc3c21	.	.	-1.6	19	i	0.83	-1

(more compounds)
Molecule	INS promoter inh	INS promoter inh cell count	GALR2 agonist	RGS16-Gao	HSV replic up	HSV replic up primary fold	PKD1 inh
Cc1ccc(C23CC4CC(CC(C(=O)OCC(=O)NC5CCS(=O)(=O)C5)(C4)C2)C3)cc1 (configuration not stated)	33	86	1.1	119	i	0.99	3
COCCn1nnnc1C(c1cc(OC)ccc1OC)N1CCc2ccccc2C1 (configuration not stated)	.	.	-1.4	102	i	1	8
C=C(C)C(=O)Nc1cccc(C2=NOC3(C2)C[C@@H](C(N)=O)N(C(=O)CC(c2ccccc2)c2ccccc2)C3)c1 (some centres not stated)	.	.	.	100	i	0.72	.
O=C(Nc1nnc(-c2ccccc2)o1)c1cc(-c2cccs2)nc2ccccc12	2	68	0.7	103	.	.	-4
COc1ccc(/C=C2\SC(=S)N(CC(=O)OCC(=O)Nc3ccc(C)cc3Cl)C2=O)cc1	.	.	.	97	i	0.95	-7
Cc1ccsc1/C=C(\C#N)C(=O)NCCCN1CCOCC1	.	.	.	102	i	0.94	-1
Cc1nn(-c2ccccc2)c(N2CCCC2)c1C=O	-20	160	.	102	i	0.91	-1
O=C1Nc2ccc(Br)cc2C1=Nc1ccc(-c2nnc3n2CCCCC3)cc1	33	139	-3.6	63	.	.	-3
Cc1ccc(S(=O)(=O)Oc2ccc(/C=C(/NC(=O)c3ccccc3)C(=O)O)cc2)cc1	25	80	.	112	i	0.95	-2
CCOC(=O)CNC(c1ccccc1)c1cc(Br)ccc1NC(=O)CCN1CCOCC1 (configuration not stated)	0	136	-0.3	104	i	0.9	-2
COc1ccc(C(=O)CNc2ccc(C)cc2C)cc1	.	.	.	102	i	1	.
COc1cccc(-c2cc(C(=O)Nc3cnn(Cc4ccc(F)cc4)c3)no2)c1	.	.	-0.7	103	i	0.7	-14
CCC1CCCCN1Cc1nc2c(c(=O)n(C)c(=O)n2C)n1Cc1ccccc1 (configuration not stated)	.	.	0.5	102	i	0.86	-5
Nc1nnc(SCc2ccc(Cl)cc2)s1	-10	127	-0.7	92	i	1	6
CC(C)(C)S(=O)(=O)/C(C#N)=C/c1sccc1C1OCCO1	.	.	.	103	i	1.1	.
CCOC(=O)c1c(C)c(C(=O)NCCCN2CCCC2=O)c(C)n1CC	.	.	-1.5	101	i	1.1	-7
O=C(Oc1cccc(-n2cnnn2)c1)c1sc2ccccc2c1Cl	.	.	0.3	79	i	0.99	-5
O=C(CSc1nnc(SCc2ccc(Cl)cc2)s1)N/N=C/c1ccc(Cl)cc1Cl	-5	74	.	100	i	0.98	5
CCC(C)[C@H](NC(=O)N1CCC(C)CC1)C(=O)O (some centres not stated)	.	.	.	109	i	0.92	.
CCC(=O)Nc1cc(C)c(NC(=O)C23CC4CC(CC(C4)C2)C3)cn1	76*	51*	0.9	107	i	0.76	-7

More compounds.
Molecule	INS promoter inh	INS promoter inh cell count	GALR2 agonist	RGS16-Gao	HSV replic up	HSV replic up primary fold	PKD1 inh
COC(=O)/C=C1/SC(=Nc2ccc(C)cc2C)NC1=O	.	.	-4.5	99	.	.	4
C=CCc1c(C)nc(N2CCSCC2)[nH]c1=O	.	.	.	100	i	1.2	.
CCNc1nc(NCC)n2c(SCc3ccc(F)cc3)nnc2n1	.	.	-0.9	105	i	0.9	-13
CCOC(=O)C(=O)/C(=C\N(C)C)c1onc(-c2c(Cl)cccc2Cl)c1C(=O)OC	13	41	0.3	102	i	1	-11
O=C(NC1CCCC1)C(c1ccncc1)N(CC1CCCO1)C(=O)Cn1nnc(-c2cccs2)n1 (configuration not stated)	34	136	-0.6	96	i	0.98	3
O=C(Nc1cccnc1)c1ccc(COc2ccccc2Cl)o1	0	106	-0.8	93	i	0.59	-9
COc1ccccc1CN(C)c1nnnn1-c1ccccc1	.	.	.	102	i	0.94	-5
Nc1cccc2c1C(=O)N(C(=O)c1ccco1)C2=O	.	.	.	99	i	1.1	.
CCC(Sc1nccn1C)C(=O)Nc1ccc(Cl)cn1 (configuration not stated)	.	.	.	146	i	0.88	2
Cc1ccc(CSc2nnc(-c3cccc(S(=O)(=O)N4CCOCC4)c3)n2CC(C)C)cc1	17	100	-0.8	99	i	1	-18
Cc1ccc(SCC(=O)c2c(C)nc3cc(C)ccn23)cc1	.	.	.	102	i	0.84	-4
O=C(O)c1cc(N2C(=O)C3CC=CCC3C2=O)ccc1NCc1cccnc1 (configuration not stated)	13	96	-2.7	99	.	.	1
COC(=O)/C(=C/c1c[nH]c2ccccc12)[N+](=O)[O-]	.	.	-3.0	107	i	0.93	1
COc1ccc(-c2cc(CNC(C)=O)on2)cc1	.	.	-0.2	83	i	0.98	10
CCn1ncc(CN2CCN(Cc3cccc(OC)c3)C(CCO)C2)c1C (configuration not stated)	.	.	.	101	i	0.88	-5
COCCCNC(=O)CN(CCc1ccccc1)S(=O)(=O)c1ccc(C)cc1	.	.	.	102	i	0.96	-2
CSCC[C@@H](C(=O)Nc1ccc2c(c1)OCCO2)N1Cc2ccccc2C1=O	.	.	-2.0	99	i	0.85	11
Cc1[nH]c2ccccc2c1NC(=O)CN1CCN(C(=O)c2ccco2)CC1	.	.	.	102	i	1.3	.
NC(=O)CSc1c[nH]c2ccccc12	13	99	0.9	20*	i	0.78	-8
COc1cc(C2N=C(c3ccccc3)NO2)cc(Br)c1O (configuration not stated)	43	114	-1.6	118	i	0.9	-8

Continued:
Molecule	INS promoter inh	INS promoter inh cell count	GALR2 agonist	RGS16-Gao	HSV replic up	HSV replic up primary fold	PKD1 inh
NC(=S)N/N=C/c1ccc(-c2ccccc2)o1	0	61	.	108	i	0.84	-5
CCC(CO)NC(=O)c1cccc(S(=O)(=O)N2c3ccccc3CC2C)c1 (configuration not stated)	.	.	-0.5	100	i	0.88	6
O=C(CNC(=S)N(Cc1ccccc1)Cc1ccccc1F)NCCc1ccc(Cl)cc1	33	51	.	106	i	0.93	-7
Nc1ccccc1SC1CC(=O)N(Cc2ccccc2)C1=O (configuration not stated)	.	.	.	103	i	0.95	-4
C/C(=N/NC(=O)c1ccc2c(c1)OCO2)c1cccc(NC(=O)C(C)(C)C)c1	-9	107	-1.3	100	i	0.97	-6
Fc1cc(Br)ccc1Nc1nc2ccccc2n2nnnc12	.	.	6.1*	102	i	0.98	5
CCOC(=O)n1c(SCC(=O)N(CC)CC)nc2ccccc21	29	84	-0.9	101	i	1	4
Clc1ccccc1Cn1nnc2c(NCC3CC3)ncnc21	.	.	-0.8	-199	i	1.1	9
COc1ccccc1Nc1nc(-c2sc(NC(=O)c3ccccc3)nc2C)cs1	0	98	-0.9	99	i	1	4
CC(C)c1ccc(NC(=O)CSc2nc(-c3ccccc3F)nc3nc[nH]c23)cc1	.	.	2.1	104	.	.	-11
CCC(=O)Nc1ccc(NC(=O)CSc2nnnn2-c2ccc3c(c2)OCCO3)cc1	.	.	.	109	i	0.71	2

Profiles from above:
Shown for NC(=S)N/N=C/c1ccc(-c2ccccc2)o1 = INS promoter inh: 0; INS promoter inh cell count: 61; GALR2 agonist: .; RGS16-Gao: 108; HSV replic up: i; HSV replic up primary fold: 0.84; PKD1 inh: -5
Shown for O=C(CNC(=S)N(Cc1ccccc1)Cc1ccccc1F)NCCc1ccc(Cl)cc1 = INS promoter inh: 33; INS promoter inh cell count: 51; GALR2 agonist: .; RGS16-Gao: 106; HSV replic up: i; HSV replic up primary fold: 0.93; PKD1 inh: -7
